MARV entry inh = qHTS for inhibitors of binding or entry into cells for Marburg Virus | 1.8% of 300,000 active | Potency, µM (doses to about 37.8 µM), for inactives: top-dose activity change, negative = inhibition, hits mostly inhibitors | AID 540276, 2011 | Marburg virus pseudotyped entry inhibition, cell reporter; control for the full effect not named in the record; about a third of the inactives were read at about 46 µM; active = well fitted inhibition curve with a large enough effect; inconclusive = small, poorly fitted or top-dose-only effect, or effect the other way; inactive = flat fitted curve, though single readings scatter; tested in HEK293 cells; about a fifth of its hits are not listed in these tables; note: % is set by controls: 0 for no effect and ±100 for the full control effect; luciferase read-out
Cruzain Triton = qHTS Assay for Promiscuous and Specific Inhibitors of Cruzain (with detergent); AID 1478, 2009; purified cruzain, Z-FR-AMC fluorescence, 0.01% Triton; Cruzipain (Trypanosoma cruzi), P25779; 0.43% of 200,000 active; Potency, µM, inactives show max response, negative = inhibition, hits mostly inhibitors;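 note: plate controls were neutral wells for no effect and buffer without enzyme for full effect; nearly all actives have a fitted effect of over 40% in size; top concentration of the series not given in the record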
Target sequence (P25779 123-467 limits assumed): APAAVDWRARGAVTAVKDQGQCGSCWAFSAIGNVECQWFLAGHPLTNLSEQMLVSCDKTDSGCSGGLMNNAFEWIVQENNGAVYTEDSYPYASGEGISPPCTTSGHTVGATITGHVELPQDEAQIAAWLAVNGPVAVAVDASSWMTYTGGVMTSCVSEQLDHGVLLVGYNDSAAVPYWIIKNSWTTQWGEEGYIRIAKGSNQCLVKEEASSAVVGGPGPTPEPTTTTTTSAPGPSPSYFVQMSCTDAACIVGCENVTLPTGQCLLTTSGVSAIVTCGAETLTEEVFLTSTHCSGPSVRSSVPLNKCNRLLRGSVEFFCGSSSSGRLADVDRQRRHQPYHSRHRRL
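In this qHTS format, compounds are incubated with 1.5 nM cruzain for 15 min at room temperature before 2 uM Z-FR-AMC is added. Release of AMC is followed at 360/450 nm, and progress is taken as the 60 s fluorescence difference.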
SARS PLpro yeast = qHTS of Yeast-based Assay for SARS-CoV PLP; S. cerevisiae expressing SARS-CoV PLpro, growth rescue; control for the full effect not named in the record; Potency, µM (series often up to 32.9 µM), for inactives: top-dose activity, positive = growth rescue; 0.19% of 330,000 active; active means well fitted rising curve with a large enough effect; inconclusive means small, poorly fitted or top-dose-only effect; inactive means no such curve, though single readings can be large or run the other way; note: 0% is about no effect; nearly all actives have a fitted effect of over 55% in size; growth read by luminescence after 48 h
LASV entry inh = qHTS for Inhibitors of binding or entry into cells for Lassa Virus | Lassa virus pseudotype entry inhibition, cell reporter; control for the full effect not named in the record | Potency, µM (titrated, usually from 37.9 µM), for the others: top-dose activity change, negative = inhibition, most hits filed as inhibitors | 1.2% of 300,000 active | AID 540256, 2011; active means well fitted inhibition curve with a large enough effect; inconclusive means small, poorly fitted or top-dose-only effect, or effect the other way; inactive means flat fitted curve, though single readings scatter; tested in HEK293 cells; note: % is set by controls: 0 for no effect and ±100 for the full control effect; nearly all actives have a fitted effect of over 50% in size; luciferase read-out
NS1 inh = qHTS Assay for Inhibitors of Influenza NS1 Protein Function; S. cerevisiae slowed by influenza A NS1, growth recovery by OD600; Potency, µM (doses to about 46.1 µM), for inactives: at the highest dose activity, positive = more growth; 0.4% of 270,000 active; AID 2326, 2010; active means well fitted rising curve with a large enough effect; inconclusive means small, poorly fitted or top-dose-only effect; inactive means no such curve, though single readings can be large or run the other way; note: nearly all actives have a fitted effect of over 50% in size
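Compounds were scored for reversing the slow growth caused by influenza A NS1 in S. cerevisiae, measured by optical density at 600 nm. Assay medium contained 2% galactose at pH 6.0; NS1-free yeast of the same strain were the positive control.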
Cruzain inh noDet = qHTS Assay for Promiscuous and Specific Inhibitors of Cruzain (without detergent); Cruzipain (Trypanosoma cruzi), P25779; purified cruzain, Z-FR-AMC fluorescence, no detergent; Potency, µM, inactives show max response, negative = inhibition, usual class: inhibitors; 2.3% of 200,000 active; AID 1476, 2009;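 note: plate controls were enzyme without inhibitor for no effect and buffer without enzyme for full effect; nearly all actives have a fitted effect of over 40% in size; top concentration of the series not given in the record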
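Detergent-free condition (0.00005% Triton X-100) in acetate buffer pH 5.5 with DTT. 1.5 nM enzyme and compound were pre-mixed 15 min, then 2 uM Z-FR-AMC substrate added; reaction progress from fluorescence change between first and third reads (60 s).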
RE007 growth inh = qHTS Assay for Inhibitors of the HIV-1 protein Vpr; 0.21% of 360,000 active; Potency, µM (top dose mostly 92.2 µM), for the others: at the highest dose activity change, negative = less growth; S. pombe RE007 Vpr strain, BacTiter-Glo ATP luminescence, 24 h; control for the full effect not named in the record; AID 651644, 2012; active = well fitted falling curve with a large enough effect; inconclusive = small, poorly fitted or top-dose-only effect; inactive = no such curve, though single readings can be large or run the other way;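 note: % is set by controls: 0 for no effect and ±100 for the full control effect; nearly all actives have a fitted effect of over 50% in size; the assay follows cell death caused by Vpr and the record does not say whether a fall means rescue or toxicity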
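Fission yeast RE007 carrying one integrated HIV-1 vpr copy, seeded at OD 0.01 in PMG+AL medium with 23 nL pinned compound. Grown 24 h at 30 degrees; viability read by BacTiter-Glo luminescence after 5 min.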
StopGo reporter = High Throughput Screening for Foot and Mouth Disease Virus Antivirals. human cells with a luciferase reporter of 2A StopGo recoding; control for the full effect not named in the record. Potency, µM (top dose mostly 57.9 µM), for the others: top-dose signal change, negative = less light. 1.2% of 410,000 active. AID 1159524, 2015; active = well fitted falling curve with a large enough effect; inconclusive = small, poorly fitted or top-dose-only effect; inactive = no such curve, though single readings can be large or run the other way; tested in HEK293T cells; note: % is set by controls: 0 for no effect and ±100 for the full control effect; nearly all actives have a fitted effect of over 45% in size; luciferase light after 4 h
* hit, by the source's call; ? = inconclusive; . = not tested or not shown; & = joins results of further samples; [ ] = remark or other dose. Unless noted, calls come from the whole dose curve; as a rule, active = well fitted curve in the direction sought with a large enough effect; inconclusive = small, poorly fitted or top-dose-only effect, or another doubt; inactive = no such curve, though single readings can be large; an effect the other way counts as inactive or inconclusive. Potency is the fitted concentration of half-maximal effect.

SMILES	MARV entry inh	Cruzain Triton	SARS PLpro yeast	LASV entry inh	NS1 inh	Cruzain inh noDet	RE007 growth inh	StopGo reporter
CCOC(=O)c1c(NC(=O)CC(C)C)sc(C(C)=O)c1C	7%	-4.9%	-13%	3%	3%	?	-8%	-3%
COCCn1c(SCc2ccc(F)cc2)nc2c1c(=O)[nH]c(=O)n2C	.	.	5%	.	17%	.	12%	-7%
CN(C)S(=O)(=O)c1cccc(NC(=O)CCCc2nc3ccccc3c(=O)[nH]2)c1	-6%	.	3%	14%	.	.	-28%	-16%
Cc1cc(C)cc(-n2c(C)cc(/C=N/NC(=O)CN(c3c(C)cccc3C)S(C)(=O)=O)c2C)c1	?	-1.5%	-3%	-21%	10%	-15%	11%	?
COc1cc(CN2CCCCCC2)c([N+](=O)[O-])cc1OC	.	.	1%	.	7%	.	2%	-3%
CCCOc1ccc(NC(=O)C2CCCNC2=O)cc1 (configuration not stated)	30%[46.1 µM]	-1.6%	4%	3%	-1%	-4%	27%	38%[activator]
Cc1ccc(Cn2c(C3CCCN3c3nc(C)cs3)nc3cc(C(F)(F)F)ccc32)cc1 (configuration not stated)	.	.	-24%	.	-73%	.	-16%	-22%
CCOC(=O)c1cccc(NC(=O)CCC(=O)N2CC(C)Oc3ccc(C)cc32)c1 (configuration not stated)	-1%[46.1 µM]	-4.4%	.	12%[46.1 µM]	.	-1%	.	-30%
COc1ccc(/C=C(\C#N)C(=O)N2CCOCC2)cc1Br	5%	-4.2%	-6%	-5%	-36%	5%	-25%	-9%
Cc1cc(C)nc(NC2=NCC(=O)N2c2ccc3c(c2)OCCO3)n1	-4%	-3.3%	0%	27%	7%	2%	-26%	.
COc1cccc(OCC(O)CN2CCN(c3ccc(Cl)cc3)CC2)c1 (configuration not stated)	.	.	0%	.	-46%	.	-15%	-23%
CCCCSCCCNC(=O)CN1C(=O)COc2ccc(S(=O)(=O)N3CCCC3)cc21	15%[46.1 µM]	-0.1%	.	2%[46.1 µM]	.	-3%	.	-25%
O=C(COc1ccccc1/C=C1\SC(=O)NC1=O)Nc1ccccc1	3%	.	0%	10%	.	.	14%	-3%
CCOC(=O)C1CCCN(Cc2ccc(OCc3ccccc3)cc2)C1 (configuration not stated)	.	.	-3%	.	0%	.	-13%	0%
COc1ccc2sc(N(Cc3cccnc3)C(=O)c3ccc4c(c3)OCCO4)nc2c1	.	1.7%	.	?	.	-16%	.	?
COCCn1c(SCC(=O)Nc2cc(C)on2)nc2c(c1=O)SCC2	20%	.	13%	1%	-6%	.	-1%	-23%
Cc1cc(NC(=O)CN(C)C)c([N+](=O)[O-])cc1C	.	.	0%	.	3%	.	-2%	12%
O=[N+]([O-])c1cccc(C=NN=C2c3ccccc3-c3ccccc32)c1	5%	.	.	?	.	.	6%	-6%
CN(Cc1ccccc1F)Cc1cc(=O)oc2cc(O)c(Cl)cc12	1%[46.1 µM]	.	-4%	?	-2%	.	-4%	-4%
O=C(NCCc1csc(-c2cccc(F)c2)n1)c1ccco1	.	-4.3%	-8%	-6%[46.1 µM]	-35%	-1%	-8%	-7%&-11%
Cc1ccc(C)c(NC(=O)CN(C)C(=O)c2cc(-c3cccs3)nn2-c2ccccc2)c1	-29%	.	-2%	1%	18%	.	-8%	8%
CCc1cccc(NS(=O)(=O)c2c(C)nc3scc(C)n3c2=O)c1	-23%[46.1 µM]	.	2%	-13%	10%	.	-7%	22%
CCCNC(=O)CCn1nc(-c2ccc(Cl)cc2)c2ccccc2c1=O	?	.	1%	4%	-4%	.	-21%	-9%
COc1cccc2c(=O)c(C(=O)NCc3cccs3)c[nH]c12	8%	-3.9%	2%	?	1.4µM*	5%	8%	4%
O=C(O)c1cccc(-c2nc3ccccc3[nH]2)c1	0.35µM*	-7.6%	17%	1.4µM*	14%	0%	-18%	?
CC(=O)Nc1ccc(N=NC2C(=O)N(C(N)=S)N=C2C)cc1 (configuration not stated)	.	.	-2%	.	?	.	5%	35%[activator]
CC1=C(C#N)S(=O)(=O)C(C#N)C(c2ccccc2)C1 (configuration not stated)	-2%[14.2 µM]	.	1%	5%	12%	.	1%	2%
CC12CCC(C(=O)N3CCCCCC3)(OC1=O)C2(C)C (configuration not stated)	1%	1.0%	-6%	3%	-3%	-7%	-8%	0%
COc1cccc(NC(=O)CCc2c(C)nc3c4cccnc4nn3c2C)c1	-13%[46.1 µM]	-14%	.	-11%[46.1 µM]	.	9%	.	-22%
CCN(CC)CCCN(C(=O)c1cccc(C)c1)c1nc(-c2ccc(OC)cc2)cs1	.	.	-8%	.	-11%	.	-2%	2%
CCOC(=O)Cc1csc(CC(N)=O)n1	.	.	1%	.	1%	.	3%	-5%
CCN1CCc2c(sc(NC(=O)c3ccc(S(=O)(=O)N(CC)c4ccccc4)cc3)c2C(N)=O)C1	?	.	-1%	?	13%	.	6%	25µM*
Nc1ccc(CCC(=O)N2CCCC2)cc1	.	.	3%	.	-11%	.	2%	-1%
CCOC(CNc1cc(C)nc2c(-c3ccccc3OC)c(C)nn12)OCC	-23%[46.1 µM]	.	0%	?	-1%	.	-3%	-19%
N#Cc1c(N2CCN(c3ccc(F)cc3)CC2)nc(N)c2c(N)nc3c(c12)CC(=O)N3C1CC1	-17%[46.1 µM]	.	-1%	16%	.	.	-1%	-18%
COc1ccc(-n2cnnc2SCC(=O)Nc2ccc(N3CCOCC3)cc2)cc1	?	6.1%	-3%	0%	12%	-3%	1%	1%
Cc1ccc(Nc2cnn(C34CC5CC(CC(CC(=O)O)(C5)C3)C4)c(=O)c2Cl)cc1	-2%	-4.5%	6%	28%	24%	-7%	11%	-22%
O=C(COc1ncnc2c(Cl)cc(Cl)cc12)Nc1cc([N+](=O)[O-])ccc1Cl	3%	-3.4%	?	6%	28%	?	-2%	?
COc1cc(OC)c(S(=O)(=O)Nc2ccccc2N2CCOCC2)cc1NC(C)=O	-4%[46.1 µM]	.	1%	16%[46.1 µM]	-2%	.	-16%	6%
COc1ccccc1C(=O)NC(CCSC)C(=O)NCC(c1cccs1)N1CCOCC1 (configuration not stated)	-4%	.	2%	-1%	.	.	1%	17%
CCCCNC(=O)C1CCN(S(=O)(=O)c2ccc3c(c2)CC(C)N3C(=O)C2CC2)CC1 (configuration not stated)	.	.	17%	.	-20%	.	-2%	-24%
CCOC(=O)CSc1nc(=O)n2cccc(C)c2n1	11%[46.1 µM]	.	0%	2%	.	.	10%	-17%
CCOC(=O)Cc1c(C)nc2cc(-c3ccc(C(C)(C)C)cc3)nn2c1C	16%[46.1 µM]	-9.0%	.	11%[46.1 µM]	.	?	.	-12%
CC(C)NC(=O)c1ccc2c(=O)n(Cc3ccco3)c(=S)[nH]c2c1	-6%	7.5%	6%	-26%	12%	2%	-2%	-7%
O=C(NCCCN1CCN(Cc2ccccc2)CC1)C1CCN(S(=O)(=O)N2CCCC2)CC1	5%	2.6%	1%	-14%	6%	-7%	12%	.
CCCCn1c(O)c(C(C)=NCc2ccco2)c(=O)[nH]c1=O	.	.	-1%	.	-1%	.	-16%	-15%
O=C(CSc1nnc(-c2ccc(O)cc2)n1Cc1ccco1)N1CCc2ccccc2C1	-28%&-28%	1.2%	5%	-29%	-38%	4%	7%	-7%
CC(NC(=O)c1cccc(OC2CCN(C3CCN(C)CC3)CC2)c1)c1ccccc1 (configuration not stated)	.	.	28%	.	9%	.	-1%	-8%
Cc1ccccc1OCCCCCCN1CCNCC1	?	.	.	-7%	.	.	29%	13%
COc1cccc(NCc2ccc([N+](=O)[O-])s2)c1	-12%	-5.7%	-3%	?	28%	?	10%	-11%
Cc1cc(Cl)c2oc(C(=O)N(C)C3CCOC3)c(C)c2c1 (configuration not stated)	6%[46.1 µM]	.	-15%	?	-14%	.	-4%	13%
COc1ccc(-c2noc(-c3ccc(N4CCCCC4C)c([N+](=O)[O-])c3)n2)cc1OC (configuration not stated)	9%[46.1 µM]	1.5%	.	5%[46.1 µM]	.	17%	.	-14%
c1cnc(-c2nnc3n2CCCCC3)cn1	-8%	-0.4%	9%	4%	-16%	3%	-24%	.
O=C1CCCc2oc3ccc(NS(=O)(=O)c4cccc5cccnc45)cc3c21	?	.	-1%	-1%	.	.	5%	-29%
O=C1Nc2c(Br)cc(Br)c3cccc1c23	?	.	-4%	5%	.	.	-21%	1%
COc1ccc(N2CCN(S(=O)(=O)c3ccc(-c4cnc(C5CC5)o4)cc3)CC2)cc1	.	1.3%	-3%	?	20%	?	9%	0%&-13%
OC(COc1ccc(Br)cc1)CN1CCCC1 (configuration not stated)	.	.	11%	.	-18%	.	-4%	-18%
COc1cc(/C=C(\C#N)C(N)=O)ccc1OCc1c(C)no[n+]1[O-]	.	.	-1%	.	9%	.	16%	-19%
COc1ccccc1C(=O)NCCC(=O)N1CCCC(C)C1 (configuration not stated)	0%[46.1 µM]	.	-2%	?	-3%	.	-2%	-12%
Cc1ccccc1CSc1ncc(Cl)c(C(=O)NCc2ccccc2)n1	12%[46.1 µM]	0.2%	.	4%[46.1 µM]	.	-5%	.	0%
Going on with the list:
SMILES	MARV entry inh	Cruzain Triton	SARS PLpro yeast	LASV entry inh	NS1 inh	Cruzain inh noDet	RE007 growth inh	StopGo reporter
O=C(O)COCc1nc2ccccc2s1	.	.	0%	.	1%	.	-2%	-17%
Cc1nc2c(C(=O)NCCC(C)C)c[nH]n2c(=O)c1Cc1ccccc1F	?	-7.7%	-5%	-13%	-80%	?	6%	38%[activator]
Cc1ccc(S(=O)(=O)c2nc(-c3ccccc3Cl)oc2NCCCN2CCOCC2)cc1	?	.	28%	?	-4%	.	1%	4%
COc1ccc(C)cc1S(=O)(=O)N(CC(=O)N1CCOCC1)Cc1ccccc1	-1%	-2.7%	2%	-2%	-12%	11%	-5%	.
